AHR activator: activates the human aryl hydrocarbon receptor; 320,000 compounds, 2.5% hits; AHR-responsive luciferase reporter cells, luminescence; P35869; activation, % at 5 µM; AID 2796; in the data active means activation above about 47%;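 further: 0% = vehicle wells and 100% = reference agonist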
PAFAH1B2 inh: PAFAH1B2 (human) inhibition; P68402; recombinant PAFAH1B2, FP-rhodamine activity probe, fluorescence polarization; inhibition, % at 3.39 µM; 340,000 compounds, 1.2% hits; AID 492953;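 active means inhibition above the mean of all tested compounds plus 3 SD, cut at about 24% in these data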;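 further: 0% = enzyme with DMSO and 100% = wells lacking PAFAH1B2; many of its hits are not listed in these tables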
pPAFAH FP inh: pPAFAH (human) enzyme inhibition. Q13093. recombinant pPAFAH, FP-rhodamine probe fluorescence polarization. inhibition, % at 3.39 µM. 330,000 compounds, 1.5% hits;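 active means inhibition above the mean inhibition across the screen plus 3 SD, cut at about 25% in these data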;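 further: inhibitors block binding of the rhodamine activity-based probe so polarization drops; 0% = enzyme with DMSO and 100% = wells lacking pPAFAH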
Fam108B counter: counter-screen for RBBP9 inhibitors: inhibitors of mouse Fam108B; recombinant Fam108B, FP-Rh probe fluorescence polarization; inhibition, % at 9.51 µM; 300,000 compounds, 0.33% hits; AID 1947;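 active means inhibition above the screen mean inhibition plus 3 SD, computed separately per campaign, cut at about 18% in these data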;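 further: inhibitors lower polarization as less probe binds the enzyme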
MEX-5 binding: C. elegans MEX-5 TCR-2 RNA binding activity. Q9XUB2. MEX-5/FITC-TCR2 RNA binding, fluorescence polarization; stronger effect = lower value. activity score (negative = inhibition of binding), % at 10 µM. 300,000 compounds, 0.38% hits. AID 1832;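 active means inhibition past about -25% in most replicates, and total fluorescence under double the plate's negative control median, limit read from the data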;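 further: 0% = DMSO and -100% = 5 µM competing unlabeled TCR2 RNA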
Target sequence (Q9XUB2 whole entry, looked up): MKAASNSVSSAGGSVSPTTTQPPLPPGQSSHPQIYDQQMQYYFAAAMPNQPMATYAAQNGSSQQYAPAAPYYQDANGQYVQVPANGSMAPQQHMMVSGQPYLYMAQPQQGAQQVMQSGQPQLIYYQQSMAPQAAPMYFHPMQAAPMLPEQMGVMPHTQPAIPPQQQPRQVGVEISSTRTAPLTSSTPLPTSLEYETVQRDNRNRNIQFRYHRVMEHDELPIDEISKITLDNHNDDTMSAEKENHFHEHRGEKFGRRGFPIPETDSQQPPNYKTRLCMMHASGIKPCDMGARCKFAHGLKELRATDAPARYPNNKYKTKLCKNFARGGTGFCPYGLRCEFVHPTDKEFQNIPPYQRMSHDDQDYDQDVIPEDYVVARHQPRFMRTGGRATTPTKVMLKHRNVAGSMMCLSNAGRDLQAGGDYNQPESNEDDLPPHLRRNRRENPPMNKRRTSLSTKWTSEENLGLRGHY
PME-1 inh: PME-1 (human) inhibition. Q9Y570. inhibition, % at 5.9 µM. AID 2130. 320,000 compounds, 0.53% hits. recombinant PME-1, FP-Rh probe fluorescence polarization;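 active means inhibition above the campaign mean of all compounds plus 3 SD, cut at about 26% in these data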;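 further: competitive labeling of PME-1 active site by serine hydrolase directed probe; 0% = PME-1 with DMSO and 100% = wells lacking PME-1 enzyme; inhibitors block probe labeling so polarization falls and inhibition rises; many of its hits are not listed in these tables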
GLD-1 RNA inh: GLD-1-TGE RNA interaction inhibition (C. elegans); AID 2280; Q17339; purified GLD-1 + fluorescein TGE RNA, fluorescence polarization; 320,000 compounds, 0.44% hits; inhibition, % at 5.96 µM;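 active means percent inhibition above a per-plate cutoff, the plate mean of test compounds plus 3 SD, cut at about 30% in these data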;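 further: 0% = DMSO wells with GLD-1 and probe and 100% = wells lacking GLD-1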
Numbers without * were called inactive; & = joins results of further samples.

SMILES	AHR activator	PAFAH1B2 inh	pPAFAH FP inh	Fam108B counter	MEX-5 binding	PME-1 inh	GLD-1 RNA inh
COc1cc(NC(=O)c2cc3cccc(OC)c3o2)cc(C(=O)Nc2cccc(C(F)(F)F)c2)c1	73*	-43	-38	-27	4.0	-46	-55
COc1nc(N/N=C/c2ccc(-c3ccccc3[N+](=O)[O-])o2)nc(N2CCOCC2)n1	50*	0	2	7	-19	13	12
CCOC(=O)Cc1csc(SCc2cc(=O)oc3cc(O)ccc23)n1	-1	0	6	1	-0.7	2	-1
Cn1c(N)c(C(=O)N/N=C/c2ccccc2)sc1=S	101*	5	11	2	2.2	22	-3
CNC(=S)N/N=C/c1ccc(OCC(=O)Nc2c(C)cc(C)cc2C)c(OC)c1	11	-5	6	3	0.2	0	7
COc1ccc(/C=C2\N=C(C)N(c3ccc4ccccc4c3)C2=O)cc1OC	4	1	6	0	5.8	-4	-18
CCc1nc(N2CCN(C(=O)c3ccco3)CC2)c2c3c(sc2n1)CCCC3	2	-2	4	1	1.2	5	3
CCCCCC(=O)Nc1cccc(C2=NOC3(C2)C[C@H](C(N)=O)N(C(=O)[C@H]2CCC(=O)N2)C3)c1 (stereo partly specified)	0	-1	6	-3	-0.9	1	-9
Cc1ccc(CNC(=O)CCC2CCCN(Cc3cccc4cccnc34)C2)o1 (stereo unspecified)	5	2	6	9	-1.5	8	5
Cc1ccc(OCC(=O)NNC(=O)CSc2ncc(C#N)c(N)n2)cc1	22	-4	-11	1	0.2	-14	-14
NC1=NC2(CCCCCC2)n2c(nc3ccccc32)N1	2	3	5	-3	3.7	-6	6
COC(=O)CCN(C(=O)C1C2CC3CC(C2)CC1C3)c1ccccn1 (stereo unspecified)	-3	14	-1	2	-0.2	2	-1

Part of the list above, reformatted.
> Cn1c(N)c(C(=O)N/N=C/c2ccccc2)sc1=S
- AHR activator = 101*
- PAFAH1B2 inh = 5
- pPAFAH FP inh = 11
- Fam108B counter = 2
- MEX-5 binding = 2.2
- PME-1 inh = 22
- GLD-1 RNA inh = -3
> COc1nc(N/N=C/c2ccc(-c3ccccc3[N+](=O)[O-])o2)nc(N2CCOCC2)n1
- AHR activator = 50*
- PAFAH1B2 inh = 0
- pPAFAH FP inh = 2
- Fam108B counter = 7
- MEX-5 binding = -19
- PME-1 inh = 13
- GLD-1 RNA inh = 12
> CCCCCC(=O)Nc1cccc(C2=NOC3(C2)C[C@H](C(N)=O)N(C(=O)[C@H]2CCC(=O)N2)C3)c1 (stereo partly specified)
- AHR activator = 0
- PAFAH1B2 inh = -1
- pPAFAH FP inh = 6
- Fam108B counter = -3
- MEX-5 binding = -0.9
- PME-1 inh = 1
- GLD-1 RNA inh = -9
> Cc1ccc(OCC(=O)NNC(=O)CSc2ncc(C#N)c(N)n2)cc1
- AHR activator = 22
- PAFAH1B2 inh = -4
- pPAFAH FP inh = -11
- Fam108B counter = 1
- MEX-5 binding = 0.2
- PME-1 inh = -14
- GLD-1 RNA inh = -14

(listing goes on)
SMILES	AHR activator	PAFAH1B2 inh	pPAFAH FP inh	Fam108B counter	MEX-5 binding	PME-1 inh	GLD-1 RNA inh
CCN(CC)S(=O)(=O)c1ccc(NC2c3ncccc3C(=O)N2Cc2ccccc2)cc1 (stereo unspecified)	-2	1	3	3	0.9	1	1
CC(C)(C)c1cc(N)n2nc(C(C)(C)C)cc2n1	8	4	4	-3	-2.4	-3	-10
CCOc1cc(/C=N/NC(=O)CN2CCOCC2)ccc1OCc1ccccc1	6	0	3	-1	1.3	0	2
Cc1ccc(Cl)cc1N1CCN(CC(O)COC(C)C)CC1 (stereo unspecified)	-1	1	3	2	-2.0	5	-2
CCN(CC)CCNC(=O)COc1ccc(OC)cc1	-2&1	6&5	-3&4	0&-1	0.6	-5&-2	11&0
CC(C)Nc1ncnc2c1cnn2-c1ccccc1	-1	1	-7	6	-0.9	-7	-6
COc1ccc(-n2c(O)cnc2Nc2nc(C)cc(C)n2)cc1OC	7	3	0	-1	-4.6	-1	3

An excerpt from above in order of the AHR activator value, highest first:
Molecule	AHR activator
CC(C)(C)c1cc(N)n2nc(C(C)(C)C)cc2n1	8
CC(C)Nc1ncnc2c1cnn2-c1ccccc1	-1
CCN(CC)S(=O)(=O)c1ccc(NC2c3ncccc3C(=O)N2Cc2ccccc2)cc1 (stereo unspecified)	-2

From PubChem BioAssay

The list is partial; count on the stated rates, not on these rows.
